Yeast UUG start: modulators of start codon recognition fidelity in yeast; activity score, % at 18.7 µM; AID 602363; 350,000 compounds, 0.13% hits; S. cerevisiae UUG-firefly luciferase reporter, luminescence/redox ratio;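 active = replicate mean at a twofold rise or more, about +100% in these data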;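 note: firefly luciferase made from a UUG start codon reports start codon fidelity; reporter light over untreated wells divided by growth signal over untreated wells; some hits fall short of that in this replicate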
HIV Env fusion: inhibitors of HIV Env-mediated cell fusion; HeLa-JRFL Env/CEM21 cell fusion, luciferase; inhibition, % at 12.3 µM; 360,000 compounds, 1.1% hits; AID 651610;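 active = mean replicate inhibition score of at least 50 and every replicate individually at or above 50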;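 note: 0% = plate neutral controls and 100% = maraviroc near 300 nM; one replicate is shown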
The depositor's hits bear a star; & = joins results of further samples; [ ] = another dose, or the depositor's remark. The list is partial, so the mix of outcomes need not match the whole.

SMILES | Yeast UUG start | HIV Env fusion
COc1ccc(NC(=O)N[C@H]2CC[C@H](CCn3cc(-c4ccccc4)nn3)O[C@H]2CO)cc1 | -14 | -10[16.7 µM]
O=C(N[C@H]1CC[C@H](CCn2cc(C3CCCCC3)nn2)O[C@@H]1CO)c1cccnc1 | -1 | 6[16.7 µM]
C[C@@H]1CCCCO[C@@H](CN(C)S(C)(=O)=O)[C@@H](C)CN([C@H](C)CO)C(=O)c2cc(NC(=O)C3CCCCC3)ccc2O1 | 12 | -4[16.7 µM]
C[C@@H]1CCCCO[C@H](CN(C)Cc2ccc3c(c2)OCO3)[C@@H](C)CN([C@H](C)CO)C(=O)c2cc(NC(=O)Nc3ccc(C(F)(F)F)cc3)ccc2O1 | 4 | 18[16.7 µM]
C[C@@H]1CN([C@@H](C)CO)C(=O)c2cc(NC(=O)Nc3ccc(F)cc3)ccc2O[C@@H](C)CCCCO[C@@H]1CN(C)C(=O)NC1CCCCC1 | 7 | -11[16.7 µM]
C[C@H](CO)N1C[C@H](C)[C@H](CN(C)C(=O)NC2CCCCC2)Oc2ccc(NS(=O)(=O)c3cccs3)cc2CC1=O | 17 | -15[16.7 µM]
C[C@@H]1CN([C@H](C)CO)C(=O)Cc2cc(NS(=O)(=O)c3ccccc3)ccc2O[C@H]1CN(C)S(C)(=O)=O | -10 | 0[16.7 µM]
CC(C)CC#Cc1cnc2c(c1)C(=O)N([C@@H](C)CO)C[C@@H](C)[C@H](CN(C)Cc1ccccc1C(=O)O)O2 | 34 | 13[16.7 µM]
Cc1ccc(S(=O)(=O)N(C)C[C@H]2OCCCC[C@H](C)Oc3ccc(NC(=O)C4CCCCC4)cc3C(=O)N([C@H](C)CO)C[C@@H]2C)cc1 | 6 | 10[16.7 µM]
C[C@@H]1CCCCO[C@H](CN(C)Cc2ccc(C(F)(F)F)cc2)[C@@H](C)CN([C@@H](C)CO)C(=O)c2cc(NC(=O)CCC(F)(F)F)ccc2O1 | 8 | 4[16.7 µM]
C/C=C/c1cnc2c(c1)C(=O)N([C@H](C)CO)C[C@H](C)[C@@H](CN(C)Cc1cncnc1)O2 | -2 | 7[16.7 µM]
COc1cccc(NC(=O)N(C)C[C@@H]2Oc3ncc(/C=C/c4ccccc4)cc3C(=O)N([C@@H](C)CO)C[C@H]2C)c1 | 11 | -6[16.7 µM]
C[C@@H]1CN([C@@H](C)CO)C(=O)c2cc(C#Cc3ccccn3)cnc2O[C@H]1CN(C)C(=O)c1cnccn1 | 13 | 13[16.7 µM]
C[C@@H]1CN([C@@H](C)CO)C(=O)Cc2cc(NS(C)(=O)=O)ccc2O[C@@H]1CN(C)S(=O)(=O)c1ccc(Cl)cc1 | 4 | -17[16.7 µM]
Cc1noc(C)c1NC(=O)N(C)C[C@H]1OCCCC[C@@H](C)Oc2ccc(NC(=O)CCC(F)(F)F)cc2C(=O)N([C@@H](C)CO)C[C@@H]1C | -2 | 0[16.7 µM]
CCS(=O)(=O)N[C@@H]1CC[C@H](CC(=O)Nc2ccc(-c3ccccc3)cc2)O[C@@H]1CO | -27 | 4[16.7 µM]
CC(C)NC(=O)Nc1cccc2c1O[C@H](CN(C)S(=O)(=O)c1cn(C)cn1)[C@H](C)CN([C@H](C)CO)C2=O | -9 | -7[16.7 µM]
C[C@@H]1CCCCO[C@H](CN(C)C(=O)Cc2ccccc2)[C@@H](C)CN([C@@H](C)CO)C(=O)c2cc(NC(=O)Nc3ccc(F)cc3)ccc2O1 | 3 | -31[16.7 µM]
C[C@H](CO)N1C[C@H](C)[C@H](CN(C)Cc2ccccc2)Oc2ncc(-c3cccc(F)c3)cc2C1=O | 8&1 | 21&14[16.7 µM]
CC(C)NC(=O)N(C)C[C@@H]1OCCCC[C@H](C)Oc2ccc(NC(=O)Nc3ccc4c(c3)OCO4)cc2C(=O)N([C@@H](C)CO)C[C@H]1C | 1 | 4[16.7 µM]
O=C(C[C@H]1C[C@@H]2c3cc(NC(=O)Nc4ccccc4F)ccc3O[C@@H]2[C@@H](CO)O1)NCc1ccccn1 | -17 | 14[16.7 µM]
CNC(=O)C[C@H]1CC[C@@H]2[C@H](COc3ccc(NC(=O)C4CC4)cc3C(=O)N2C)O1 | -2 | -6[16.7 µM]
COc1ccc(S(=O)(=O)N(C)C[C@@H]2OCCCC[C@@H](C)Oc3ccc(NC(=O)Nc4cccc5ccccc45)cc3C(=O)N([C@H](C)CO)C[C@H]2C)cc1 | -12 | -14[16.7 µM]
N#C[C@H]1[C@@H](c2ccc(C#CC3CC3)cc2)[C@H](CO)N1C(=O)c1cccc(F)c1 | 9 | -2[16.7 µM]
O=C(N[C@H]1C=C[C@H](CC(=O)N2CCOCC2)O[C@@H]1CO)c1cccc(F)c1 | -6 | 7[16.7 µM]

Arranged by count of non-hydrogen atoms (low to high): 8 of the compounds above
SMILES | Yeast UUG start | HIV Env fusion
N#C[C@H]1[C@@H](c2ccc(C#CC3CC3)cc2)[C@H](CO)N1C(=O)c1cccc(F)c1 | 9 | -2[16.7 µM]
O=C(N[C@H]1CC[C@H](CCn2cc(C3CCCCC3)nn2)O[C@@H]1CO)c1cccnc1 | -1 | 6[16.7 µM]
COc1ccc(NC(=O)N[C@H]2CC[C@H](CCn3cc(-c4ccccc4)nn3)O[C@H]2CO)cc1 | -14 | -10[16.7 µM]
C[C@@H]1CN([C@@H](C)CO)C(=O)Cc2cc(NS(C)(=O)=O)ccc2O[C@@H]1CN(C)S(=O)(=O)c1ccc(Cl)cc1 | 4 | -17[16.7 µM]
C[C@@H]1CCCCO[C@@H](CN(C)S(C)(=O)=O)[C@@H](C)CN([C@H](C)CO)C(=O)c2cc(NC(=O)C3CCCCC3)ccc2O1 | 12 | -4[16.7 µM]
Cc1noc(C)c1NC(=O)N(C)C[C@H]1OCCCC[C@@H](C)Oc2ccc(NC(=O)CCC(F)(F)F)cc2C(=O)N([C@@H](C)CO)C[C@@H]1C | -2 | 0[16.7 µM]
C[C@@H]1CCCCO[C@H](CN(C)C(=O)Cc2ccccc2)[C@@H](C)CN([C@@H](C)CO)C(=O)c2cc(NC(=O)Nc3ccc(F)cc3)ccc2O1 | 3 | -31[16.7 µM]
C[C@@H]1CCCCO[C@H](CN(C)Cc2ccc3c(c2)OCO3)[C@@H](C)CN([C@H](C)CO)C(=O)c2cc(NC(=O)Nc3ccc(C(F)(F)F)cc3)ccc2O1 | 4 | 18[16.7 µM]

Other results
SMILES | Yeast UUG start | HIV Env fusion
CCCNC(=O)N(C)C[C@@H]1Oc2cc(C#C[C@H](C)O)ccc2S(=O)(=O)N([C@@H](C)CO)C[C@@H]1C | -2 | -10[16.7 µM]
COc1ccc(C#Cc2cnc3c(c2)C(=O)N([C@@H](C)CO)C[C@H](C)[C@H](CN(C)C)O3)cc1 | 11 | -2[16.7 µM]
O=C(C[C@@H]1CC[C@@H]2NC[C@@H](O)COC[C@H]2O1)NCc1ccc(Oc2ccccc2)cc1 | -14 | 2[16.7 µM]
COc1ccc(S(=O)(=O)N(C)C[C@@H]2Oc3ccc(NC(=O)Cn4cnnn4)cc3CC(=O)N([C@@H](C)CO)C[C@@H]2C)cc1 | 9 | 2[16.7 µM]
CCCN(C)C[C@H]1Oc2cc(C#CC(C)(C)O)ccc2S(=O)(=O)N([C@@H](C)CO)C[C@H]1C | -3 | -21[16.7 µM]
CN(C)CCCNC(=O)C[C@@H]1CC[C@@H](NS(=O)(=O)c2ccc(F)cc2)[C@H](CO)O1 | 3 | -6[16.7 µM]
C[C@@H]1CN([C@H](C)CO)C(=O)c2cc(NC(=O)Nc3ccc(F)cc3)ccc2O[C@@H](C)CCCCO[C@H]1CN(C)Cc1ccncc1 | 4 | 11[16.7 µM]
CCC(=O)N1C[C@@H](O)COC[C@H]2O[C@@H](CC(=O)N3CCCCC3)CC[C@@H]21 | -2 | -9[16.7 µM]
O=C(C[C@@H]1CC[C@@H]2[C@H](COC[C@H](O)CN2Cc2ccc(Cl)cc2)O1)NCCc1ccccc1 | -5 | 48[16.7 µM]
O=C(CC1CC1)Nc1ccc2c(c1)[C@H]1C[C@H](CC(=O)NC3CCCCC3)O[C@H](CO)[C@H]1O2 | 2 | 26[16.7 µM]
COc1cccc(NC(=O)N[C@@H]2C=C[C@@H](CC(=O)NCc3ccncn3)O[C@@H]2CO)c1 | 15 | 11[16.7 µM]
COc1ccc(S(=O)(=O)N(C)C[C@H]2OCCCC[C@@H](C)Oc3ccc(NC(=O)C4CCCCC4)cc3C(=O)N([C@H](C)CO)C[C@H]2C)cc1 | 13 | -2[16.7 µM]
COCC(=O)Nc1ccc2c(c1)C(=O)N(C)C[C@@H](OC)[C@H](C)CN(Cc1ccccc1)[C@@H](C)CO2 | 21 | -17[16.7 µM]
Cc1noc(C)c1S(=O)(=O)Nc1ccc2c(c1)CC(=O)N([C@H](C)CO)C[C@@H](C)[C@H](CN(C)Cc1ccncc1)O2 | -10 | 3[16.7 µM]
C[C@@H]1CCCCO[C@@H](CN(C)CC2CCCCC2)[C@@H](C)CN([C@H](C)CO)C(=O)c2cc(NC(=O)Cc3ccccc3)ccc2O1 | -1 | -3[16.7 µM]
C[C@H](CO)N1C[C@H](C)[C@H](CN(C)Cc2cncnc2)Oc2cc(C3=CCCCC3)ccc2S1(=O)=O | 23 | 8[16.7 µM]
C[C@@H]1CN([C@H](C)CO)C(=O)c2cc(NC(=O)CCC(F)(F)F)ccc2O[C@H]1CN(C)Cc1ccc(Oc2ccccc2)cc1 | 6 | 10[16.7 µM]
C[C@H]1CN([C@@H](C)CO)C(=O)c2cccc(NS(=O)(=O)c3ccc(F)cc3)c2O[C@H]1CN(C)C(=O)NC1CCCCC1 | 6 | 13[16.7 µM]
C[C@@H]1CN([C@H](C)CO)C(=O)Cc2cc(NS(=O)(=O)c3ccc(F)cc3)ccc2O[C@H]1CN(C)S(=O)(=O)c1cccs1 | 1 | -6[16.7 µM]
CO[C@H]1CN(C)C(=O)c2cc(NC(C)=O)ccc2OC[C@H](C)N(Cc2cc(F)ccc2F)C[C@@H]1C | -7 | -6[16.7 µM]
O=C(C[C@H]1C[C@@H]2c3cc(NC(=O)NC4CCCC4)ccc3O[C@@H]2[C@@H](CO)O1)NCc1ccccc1 | 13 | 1[16.7 µM]
COCC#Cc1cnc2c(c1)C(=O)N([C@H](C)CO)C[C@H](C)[C@@H](CN(C)Cc1ccccc1F)O2 | 7 | 12[16.7 µM]
C[C@H](CO)N1C[C@H](C)[C@H](CN(C)C(=O)Cc2ccccc2)OCCCC[C@H](C)Oc2ccc(NS(=O)(=O)c3cn(C)cn3)cc2C1=O | 6 | 16[16.7 µM]
COc1ccc(CN(C)C[C@H]2OCCCC[C@@H](C)Oc3ccc(NS(=O)(=O)c4cn(C)cn4)cc3C(=O)N([C@H](C)CO)C[C@@H]2C)cc1 | -5 | -3[16.7 µM]
Cc1ccc(S(=O)(=O)N(C)C[C@@H]2OCCCC[C@H](C)Oc3ccc(NC(=O)Nc4ccccc4)cc3C(=O)N([C@H](C)CO)C[C@H]2C)cc1 | -5 | 28[16.7 µM]

(more compounds)
SMILES | Yeast UUG start | HIV Env fusion
O=C(Nc1ccc(F)cc1)N[C@H]1CC[C@@H](CCn2cc(-c3ccc(F)cc3)nn2)O[C@@H]1CO | -14 | 4[16.7 µM]
C[C@@H]1CN([C@H](C)CO)S(=O)(=O)c2ccc(-c3ccncc3)cc2O[C@H]1CN(C)Cc1ccncc1 | -3 | -7[16.7 µM]
C[C@@H](NC(=O)C[C@H]1CC[C@H](NC(=O)C2CCOCC2)[C@H](CO)O1)c1ccccc1 | -9 | 10[16.7 µM]
C[C@H](CO)N1C[C@H](C)[C@@H](CN(C)Cc2ccccc2)Oc2c(NC(=O)Nc3ccc(C(F)(F)F)cc3)cccc2C1=O | 1 | 10[16.7 µM]
C[C@@H]1CN([C@H](C)CO)C(=O)c2cc(-c3cccnc3)cnc2O[C@H]1CN(C)C(=O)C1CCCCC1 | -14 | -20[16.7 µM]
C[C@@H]1CN([C@@H](C)CO)C(=O)Cc2cc(NS(=O)(=O)c3cccs3)ccc2O[C@H]1CN(C)C(=O)Nc1ccc(C(F)(F)F)cc1 | 6 | 4[16.7 µM]
CCC(=O)N1C[C@H](C)[C@H](OC)CN(C)C(=O)c2ccc(NC(=O)NC(C)C)cc2OC[C@@H]1C | 12 | -14[16.7 µM]
Cc1noc(C)c1NC(=O)N1C[C@H](O)COC[C@H]2O[C@H](CC(=O)N3CCc4ccccc4C3)CC[C@@H]21 | 7 | -9[16.7 µM]
C[C@H](CO)N1C[C@H](C)[C@H](CN(C)CC2CC2)Oc2ccc(NC(=O)Cc3cn(C)c4ccccc34)cc2CC1=O | 23 | 24[16.7 µM]
C[C@H](CO)N1C[C@H](C)[C@H](CN(C)S(=O)(=O)c2cccs2)Oc2ccc(NC(=O)Nc3ccc(C(F)(F)F)cc3)cc2CC1=O | -5 | 61*[16.7 µM]
CCC(=O)Nc1ccc2c(c1)C(=O)N(C)[C@@H]1CC[C@H](CC(=O)N[C@@H](C)c3ccccc3)O[C@@H]1CO2 | 8 | 6[16.7 µM]
CNC[C@H]1OCCCC[C@@H](C)Oc2ccc(NS(=O)(=O)c3ccc(C)cc3)cc2C(=O)N([C@H](C)CO)C[C@H]1C | 23 | 27[16.7 µM]
C[C@@H]1CN([C@H](C)CO)C(=O)c2cccc(NC(=O)c3cnccn3)c2O[C@@H]1CN(C)C(=O)Nc1cccc2ccccc12 | 3 | -16[16.7 µM]
COc1ccc(CN(C)C[C@@H]2OCCCC[C@H](C)Oc3ccc(NC(=O)Nc4cccc5ccccc45)cc3C(=O)N([C@H](C)CO)C[C@@H]2C)cc1 | 5 | 13[16.7 µM]
COc1ccc(-c2ccc3c(c2)O[C@@H](CN(C)C(C)=O)[C@@H](C)CN([C@@H](C)CO)S3(=O)=O)cc1 | 16 | 3[16.7 µM]

Screening results as filed in PubChem.
